Screens from PubChem BioAssay.
A1 apoptosis 2 – A1 inhibition read as caspase activation; MEF A1-2A-BIM cells, caspase-Glo luminescence, 3 h; percent of clofoctol response, DMSO zero; caspase activation, % (test concentration not listed); 24,000 tested, under 10 active; AID 2465; in the data active means caspase activation above about 5.9%;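 further: wells of about 30 µL received 50 nL stock; the first replicate is given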
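Test system – A1-2A-BIM-expressing MEF cells · Input – 2500 cells/well · Medium – RPMI-1640 growth medium with 10% FBS · Compound dosing – 50 nL pinned compound · Timing – 3 h compound exposure at 37 °C · Technique – Caspase-Glo luminescence (DEVD substrate) · Evaluation – Caspase-3/7 activity from luminescence increase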
An asterisk follows results filed as active. This is a subset; count on the stated rates, not on these rows.

Cc1ccc(S(=O)(=O)Nc2ccc3c(c2)C(=O)N([C@@H](C)CO)C[C@H](C)[C@H](CN(C)S(=O)(=O)c2ccccc2)O3)cc1
- A1 apoptosis 2 = 0.2

CC(C)NC(=O)Nc1ccc2c(c1)CC(=O)N([C@@H](C)CO)C[C@H](C)[C@@H](CN(C)Cc1ccc(Cl)c(Cl)c1)O2
- A1 apoptosis 2 = -1.4

C[C@@H]1CN([C@@H](C)CO)C(=O)c2cccc(NS(C)(=O)=O)c2O[C@H]1CN(C)S(=O)(=O)c1ccccc1
- A1 apoptosis 2 = 2.5

COc1ccc(CN(C)C[C@H]2OCCCC[C@@H](C)Oc3ccc(NC(=O)Cc4ccccc4)cc3C(=O)N([C@@H](C)CO)C[C@H]2C)cc1
- A1 apoptosis 2 = -0.4

C[C@H]1CN([C@@H](C)CO)C(=O)Cc2cc(NS(=O)(=O)c3cn(C)cn3)ccc2O[C@@H]1CN(C)S(=O)(=O)c1cn(C)cn1
- A1 apoptosis 2 = -0.6

C[C@@H]1CN([C@@H](C)CO)C(=O)Cc2cc(NS(=O)(=O)c3ccc(Cl)cc3)ccc2O[C@H]1CN(C)Cc1ccc2c(c1)OCO2
- A1 apoptosis 2 = -0.5

O=C(N/N=C/c1ccccc1)c1ccccn1
- A1 apoptosis 2 = -8.4

Cc1noc(C)c1NC(=O)N(C)C[C@@H]1Oc2c(NS(=O)(=O)c3c(C)noc3C)cccc2C(=O)N([C@H](C)CO)C[C@@H]1C
- A1 apoptosis 2 = 0.3

C[C@H](CO)N1C[C@H](C)[C@@H](CN(C)S(C)(=O)=O)OCCCC[C@H](C)Oc2ccc(NC(=O)c3ccncc3)cc2C1=O
- A1 apoptosis 2 = 0.6

COc1ccc(S(=O)(=O)Nc2ccc3c(c2)C(=O)N([C@H](C)CO)C[C@H](C)[C@H](CN(C)S(=O)(=O)c2ccc(OC)cc2)OCCCC[C@H](C)O3)cc1
- A1 apoptosis 2 = -0.4

COc1ccc(CN(C)C[C@H]2Oc3c(NS(=O)(=O)c4cn(C)cn4)cccc3C(=O)N([C@H](C)CO)C[C@H]2C)cc1
- A1 apoptosis 2 = 0.2

CC(C)NC(=O)Nc1ccc2c(c1)C(=O)N([C@H](C)CO)C[C@@H](C)[C@@H](CN(C)Cc1ccc3c(c1)OCO3)OCCCC[C@@H](C)O2
- A1 apoptosis 2 = -0.4

C[C@@H]1CN([C@H](C)CO)C(=O)c2cc(NC(=O)Nc3ccccc3)ccc2O[C@H]1CN(C)Cc1ccncc1
- A1 apoptosis 2 = -0.6

CNC[C@@H]1Oc2c(NS(=O)(=O)c3c(C)noc3C)cccc2C(=O)N([C@@H](C)CO)C[C@@H]1C
- A1 apoptosis 2 = 0.4

C[C@@H]1CN([C@@H](C)CO)C(=O)Cc2cc(NC(=O)Nc3cccc4ccccc34)ccc2O[C@H]1CN(C)Cc1ccc(C(=O)O)cc1
- A1 apoptosis 2 = 1.4

Cc1noc(C)c1NC(=O)N(C)C[C@H]1OCCCC[C@@H](C)Oc2ccc(NS(=O)(=O)c3cccs3)cc2C(=O)N([C@@H](C)CO)C[C@H]1C
- A1 apoptosis 2 = -0.3

Cc1noc(C)c1NC(=O)N(C)C[C@@H]1Oc2c(NS(=O)(=O)c3cn(C)cn3)cccc2C(=O)N([C@@H](C)CO)C[C@H]1C
- A1 apoptosis 2 = -1.1

C[C@@H]1CCCCO[C@H](CN(C)C(=O)Cc2ccccc2)[C@@H](C)CN([C@H](C)CO)C(=O)c2cc(NC(=O)Nc3ccc(C(F)(F)F)cc3)ccc2O1
- A1 apoptosis 2 = 0.0

C[C@@H]1CN([C@H](C)CO)C(=O)Cc2cc(NS(=O)(=O)c3cccs3)ccc2O[C@@H]1CN(C)S(=O)(=O)c1cccs1
- A1 apoptosis 2 = -1.7

C[C@H]1CN([C@@H](C)CO)C(=O)Cc2cc(NS(C)(=O)=O)ccc2O[C@@H]1CN(C)Cc1ccncc1
- A1 apoptosis 2 = 0.3

O=C(CCCCCCC(=O)Nc1ccccc1O)N/N=C/c1cn(Cc2ccccc2)c2ccccc12
- A1 apoptosis 2 = -0.7

C[C@H]1CCCCO[C@H](CN(C)S(=O)(=O)c2ccc(Cl)cc2)[C@@H](C)CN([C@@H](C)CO)C(=O)c2cc(NS(=O)(=O)c3cn(C)cn3)ccc2O1
- A1 apoptosis 2 = 0.6

COc1ccc(S(=O)(=O)Nc2ccc3c(c2)C(=O)N([C@@H](C)CO)C[C@H](C)[C@@H](CN(C)C(=O)c2ccncc2)OCCCC[C@@H](C)O3)cc1
- A1 apoptosis 2 = 0.3

CC(C)(C)c1ccc(N2C(=O)CSC2c2ccccc2)cc1 (stereo not drawn)
- A1 apoptosis 2 = 0.2

C[C@H]1CN([C@@H](C)CO)C(=O)CCCn2cc(nn2)CO[C@H]1CN(C)S(=O)(=O)c1ccc(Oc2ccccc2)nc1
- A1 apoptosis 2 = 0.6

Cc1cccc(S(=O)(=O)N(C)C[C@@H]2OCc3cn(nn3)CCCC(=O)N([C@@H](C)CO)C[C@H]2C)c1
- A1 apoptosis 2 = -0.4

C[C@@H]1CN([C@@H](C)CO)C(=O)Cc2cc(NC(=O)NC3CCCCC3)ccc2O[C@H]1CN(C)C(=O)Nc1ccc2c(c1)OCO2
- A1 apoptosis 2 = -1.2

CC(C)NC(=O)Nc1ccc2c(c1)C(=O)N([C@H](C)CO)C[C@H](C)[C@H](CN(C)CC1CCCCC1)O2
- A1 apoptosis 2 = -0.5

C[C@@H]1CCCCO[C@H](CN(C)S(C)(=O)=O)[C@@H](C)CN([C@@H](C)CO)C(=O)c2cc(NS(=O)(=O)c3ccccc3)ccc2O1
- A1 apoptosis 2 = 0.5

CC(C)NC(=O)Nc1cccc2c1O[C@@H](CN(C)Cc1ccc3c(c1)OCO3)[C@@H](C)CN([C@@H](C)CO)C2=O
- A1 apoptosis 2 = 0.3

The list goes on:
SMILES | A1 apoptosis 2
O=C(NO)c1ccc(C(=O)N/N=C/c2ccoc2)cc1 | 0.3
CC(C)NC(=O)N(C)C[C@H]1Oc2ccc(NS(=O)(=O)c3cccs3)cc2C(=O)N([C@@H](C)CO)C[C@@H]1C | 1.4
C[C@@H]1CN([C@@H](C)CO)C(=O)c2cc(N(C)C)ccc2O[C@@H](C)CCCCO[C@@H]1CN(C)S(=O)(=O)c1cn(C)cn1 | 1.3
O=C(N/N=C/c1c(O)ccc2ccccc12)c1ccccc1O | -5.1
Cc1ccc(S(=O)(=O)Nc2ccc3c(c2)CC(=O)N([C@H](C)CO)C[C@@H](C)[C@@H](CN(C)Cc2ccc(C(=O)O)cc2)O3)cc1 | -0.8
C[C@@H]1CN([C@H](C)CO)C(=O)Cc2cc(NC(=O)NC3CCCCC3)ccc2O[C@H]1CN(C)S(=O)(=O)c1cccs1 | 0.6
Cc1ccc(S(=O)(=O)Nc2ccc3c(c2)C(=O)N([C@@H](C)CO)C[C@@H](C)[C@H](CN(C)S(=O)(=O)c2c(C)noc2C)OCCCC[C@H](C)O3)cc1 | 0.8
Cc1cc(C(=O)Nc2cccc3c2O[C@H](CN(C)S(=O)(=O)c2cn(C)cn2)[C@@H](C)CN([C@H](C)CO)C3=O)n(C)n1 | -1.0
C[C@@H]1CN([C@@H](C)CO)C(=O)Cc2cc(NS(=O)(=O)c3cn(C)cn3)ccc2O[C@@H]1CN(C)S(=O)(=O)c1cn(C)cn1 | 0.4
C[C@@H]1CCCCO[C@@H](CN(C)C)[C@@H](C)CN([C@H](C)CO)C(=O)c2cc(NC(=O)Nc3cccc4ccccc34)ccc2O1 | -0.8
COC(=O)[C@]1(CCS(=O)(=O)c2ccccc2)N=C(c2ccc(OCCCO)cc2)O[C@@H]1c1ccccc1 | 0.2
COc1ccc(S(=O)(=O)N(C)C[C@H]2Oc3ccc(NC(=O)Nc4c(C)noc4C)cc3C(=O)N([C@@H](C)CO)C[C@H]2C)cc1 | 0.1
Cc1noc(C)c1NC(=O)Nc1ccc2c(c1)C(=O)N([C@H](C)CO)C[C@H](C)[C@H](CN(C)C(=O)Nc1ccc(C(F)(F)F)cc1)OCCCC[C@H](C)O2 | -0.7
C[C@H](CO)N1C[C@H](C)[C@H](CN(C)C(=O)Nc2ccc3c(c2)OCO3)Oc2ccc(NC(=O)NC3CCCCC3)cc2CC1=O | -1.0
CCCN(C)C[C@@H]1Oc2ncc(-c3ccc(F)cc3)cc2C(=O)N([C@H](C)CO)C[C@@H]1C | -0.4
Cc1noc(C)c1S(=O)(=O)N(C)C[C@H]1Oc2c(NS(=O)(=O)c3cn(C)cn3)cccc2C(=O)N([C@@H](C)CO)C[C@H]1C | 0.9
C[C@@H]1CCCCO[C@@H](CN(C)Cc2ccc(C(F)(F)F)cc2)[C@@H](C)CN([C@@H](C)CO)C(=O)c2cc(NC(=O)Cc3ccccc3)ccc2O1 | -0.9
Cc1noc(C)c1S(=O)(=O)Nc1ccc2c(c1)C(=O)N([C@H](C)CO)C[C@H](C)[C@@H](CN(C)C(=O)NC(C)C)OCCCC[C@H](C)O2 | 0.0
C[C@H](CO)N1C[C@H](C)[C@@H](CN(C)S(=O)(=O)c2ccccc2F)OCc2cnnn2CCCC1=O | -0.1
CC(C)NC(=O)Nc1ccc2c(c1)C(=O)N([C@@H](C)CO)C[C@@H](C)[C@H](CN(C)CC1CCCCC1)O2 | 0.3
C[C@@H]1CCCCO[C@H](CN(C)Cc2ccccc2)[C@H](C)CN([C@@H](C)CO)C(=O)c2cc(NC(=O)Cc3ccccc3)ccc2O1 | 0.6
COc1ccc(S(=O)(=O)Nc2ccc3c(c2)C(=O)N([C@H](C)CO)C[C@H](C)[C@@H](CN(C)C(=O)NC(C)C)OCCCC[C@H](C)O3)cc1 | 0.0
CNC[C@@H]1Oc2ccc(NC(=O)CCC(F)(F)F)cc2CC(=O)N([C@@H](C)CO)C[C@H]1C | 1.4
C[C@@H]1CCCCO[C@H](CN(C)C(=O)CCCN(C)C)[C@@H](C)CN([C@H](C)CO)C(=O)c2cc(NS(C)(=O)=O)ccc2O1 | -1.4
C[C@H]1CN([C@@H](C)CO)C(=O)Cc2cc(NC(=O)Nc3ccc(F)cc3)ccc2O[C@@H]1CN(C)Cc1ccc2c(c1)OCO2 | -0.9
C[C@H](CO)N1C[C@H](C)[C@H](CN(C)Cc2ccccc2)Oc2ccc(NC(=O)NC3CCCCC3)cc2CC1=O | 0.0
CNC[C@@H]1OCCCC[C@H](C)Oc2ccc(NC(=O)c3ccncc3)cc2C(=O)N([C@@H](C)CO)C[C@@H]1C | -0.3
C[C@H]1CN([C@@H](C)CO)C(=O)c2cccc(NC(=O)Nc3cccc4ccccc34)c2O[C@H]1CN(C)S(=O)(=O)c1ccc(F)cc1 | -0.1
C[C@@H]1CN([C@@H](C)CO)C(=O)c2cc(NC(=O)Nc3ccc(F)cc3)ccc2O[C@@H](C)CCCCO[C@H]1CN(C)CC1CCCCC1 | -0.6
Cc1ccc(S(=O)(=O)Nc2ccc3c(c2)C(=O)N([C@H](C)CO)C[C@H](C)[C@H](CN(C)Cc2ccc(C(=O)O)cc2)O3)cc1 | 0.6
C[C@H]1CN([C@@H](C)CO)C(=O)CCCn2nncc2CO[C@H]1CN(C)C(=O)Nc1ccc(C(C)(C)C)cc1 | 0.7
COc1ccc(S(=O)(=O)Nc2ccc3c(c2)CC(=O)N([C@@H](C)CO)C[C@H](C)[C@H](CN(C)S(=O)(=O)c2ccc(F)cc2)O3)cc1 | -0.1
C[C@@H]1CN([C@H](C)CO)C(=O)c2cccc(NS(=O)(=O)c3ccccc3)c2O[C@@H]1CN(C)Cc1ccc(Oc2ccccc2)cc1 | 0.5
C[C@@H]1CN([C@@H](C)CO)C(=O)c2cc(NC(=O)CCCN(C)C)ccc2O[C@H]1CN(C)S(=O)(=O)c1cccs1 | 1.5
Cc1noc(C)c1S(=O)(=O)Nc1ccc2c(c1)C(=O)N([C@H](C)CO)C[C@H](C)[C@H](CN(C)Cc1ccccc1)OCCCC[C@H](C)O2 | 1.0
Cc1ccc(S(=O)(=O)N(C)C[C@H]2OCCCC[C@H](C)Oc3ccc(NC(=O)NC(C)C)cc3C(=O)N([C@@H](C)CO)C[C@@H]2C)cc1 | 0.2
Cc1noc(C)c1S(=O)(=O)Nc1ccc2c(c1)C(=O)N([C@H](C)CO)C[C@H](C)[C@@H](CN(C)C(=O)NC1CCCCC1)OCCCC[C@@H](C)O2 | 1.1
COc1ccc(NC(=O)N(C)C[C@@H]2OCCCC[C@@H](C)Oc3ccc(NC(=O)C4CCCCC4)cc3C(=O)N([C@@H](C)CO)C[C@H]2C)cc1 | 0.6
C[C@@H]1CN([C@@H](C)CO)C(=O)CCCn2cc(nn2)CO[C@@H]1CN(C)Cc1ccc2c(c1)OCO2 | -0.3
CCOC(=O)N(C)C[C@H]1OCc2cn(nn2)CCCC(=O)N([C@@H](C)CO)C[C@@H]1C | 0.6
O=C1C2C=C(I)[C@H](C[C@@H]2OCCCCO)[C@@]12CO2 | -0.3
COc1ccc(NC(=O)Nc2ccc3c(c2)CC(=O)N([C@@H](C)CO)C[C@@H](C)[C@H](CN(C)S(=O)(=O)c2cn(C)cn2)O3)cc1 | -0.2
CC(C)NC(=O)Nc1ccc2c(c1)C(=O)N([C@H](C)CO)C[C@H](C)[C@H](CN(C)C(=O)C1CCCCC1)OCCCC[C@H](C)O2 | -1.4
